From PubChem BioAssay
RanGTP-Imp inh – inhibitors of RanGTP-importin-beta interaction, primary screen, biochemical, FRET, CFP-Ran, YFP-importin-beta, homogeneous | inhibition, % (no concentration beside the values) | Ran GTPase (GTP-bound) - importin-beta complex | hit rate 1.1% among 300,000 | cell-free CFP-Ran/YFP-importin-beta FRET ratio;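 active = most replicates above 15%; inconclusive = exactly half above 15%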;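 note: 0% = DMSO wells and 100% = Ran loaded with GDP instead of GTP; wells of about 40 µL received 100 nL stock; the first replicate is given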
Calb FLC – C. albicans growth inhibition with fluconazole, primary screen, CaCi-2 strain, Alamar Blue fluorescence | growth inhibition, % (no concentration beside the values) | C. albicans CaCi-2 (fluconazole-resistant clinical isolate) + fluconazole, 48 h | hit rate 0.57% among 300,000;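 active = most replicates above 75%; inconclusive = exactly half above 75%; inactive = most below 75%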;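 note: all wells also contain fluconazole at 8 µg/ml as a sub-toxic cotreatment; 0% = median of DMSO wells and 100% = median of geldanamycin control wells; wells of about 8 µL received 7.5 nL stock; the first replicate is given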
LANA-H2A inh – blockers of LANA interaction with H2A/H2B – biochemical, FP readout, HTS, primary screen | Protein LANA1 (Human herpesvirus 8 type P (isolate GK18)), Q9QR71 | cell-free LANA-H2A/H2B peptide, fluorescence polarization | inhibition, % (no concentration beside the values) | hit rate 0.6% among 320,000; in the data active = inhibition mostly above about 10%, no sharp cut-off; inactive = mostly below about 6.7%;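 note: stock transfer was 7.5 nL into about 10 µL; 0% = median of vehicle wells and 100% = median of positive control wells; one replicate is shown; the record names a cut of 25% in any replicate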
Vif TR-FRET – inhibitors of Vif binding to APOBEC3G peptide, primary screen, biochemical, TR-FRET, GST-Vif 1-94, biotin-A3G peptide, dose response retest (AID 1117319). Virion infectivity factor (Human immunodeficiency virus type 1 group M subtype B (isolate …. TR-FRET GST-Vif / biotin-A3G peptide binding; higher % means a stronger effect; test concentration not given here; strong numbers were not always called active. one-dose inhibition, %; IC50 in µM for titrated hits. hit rate 0.57% among 260,000;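 active = above the screen mean plus three standard deviations and confirmed in dose response; inconclusive = results disagree or hit not tested in dose response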;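 note: Vif residues 1-94 fused to GST binding biotinylated APOBEC3G peptide 110-148; 0% = full assay without inhibitor and 100% = GST in place of GST-Vif; retest series ran down from 100 µM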
T cruzi repl – inhibitors of intracellular T. cruzi growth, primary screen, luminescence, NIH3T3 host cells; T. cruzi beta-gal in NIH3T3, 90 h; inhibition, % (no concentration beside the values); hit rate 1.4% among 300,000; AID 1885, 2009;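 active = mean inhibition across valid replicates above about 55%, limit read from the data; inconclusive = mean below that limit but half or more replicates reach it; inactive = mean below it, under half of replicates reach it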;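 note: signal also drops with host cell toxicity which is not excluded here; 0% = plate median of DMSO wells and 100% = zero luminescence signal; higher percent means less beta-gal luminescence so fewer parasites; stock transfer was 50 nL into about 50 µL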
AF4-AF9 inh – inhibitors of AF4 peptide binding to AF9, primary screen, biochemical, AlphaScreen, biotin-AF4 peptide, FLAG-AF9, single point | inhibition, % at 10 µM | hit rate 0.47% among 350,000 | AID 651704, 2012;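 active = every replicate reaching a set inhibition limit, whatever the replicate mean, cut at about 25% in these data; inconclusive = mean inhibition reaches that limit but some replicates miss it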;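 note: 0% = plate neutral control median and 100% = total signal loss; the record names both 10 and 1 µM as test concentration; the first replicate is given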
Target sequence (P42568 whole entry, looked up): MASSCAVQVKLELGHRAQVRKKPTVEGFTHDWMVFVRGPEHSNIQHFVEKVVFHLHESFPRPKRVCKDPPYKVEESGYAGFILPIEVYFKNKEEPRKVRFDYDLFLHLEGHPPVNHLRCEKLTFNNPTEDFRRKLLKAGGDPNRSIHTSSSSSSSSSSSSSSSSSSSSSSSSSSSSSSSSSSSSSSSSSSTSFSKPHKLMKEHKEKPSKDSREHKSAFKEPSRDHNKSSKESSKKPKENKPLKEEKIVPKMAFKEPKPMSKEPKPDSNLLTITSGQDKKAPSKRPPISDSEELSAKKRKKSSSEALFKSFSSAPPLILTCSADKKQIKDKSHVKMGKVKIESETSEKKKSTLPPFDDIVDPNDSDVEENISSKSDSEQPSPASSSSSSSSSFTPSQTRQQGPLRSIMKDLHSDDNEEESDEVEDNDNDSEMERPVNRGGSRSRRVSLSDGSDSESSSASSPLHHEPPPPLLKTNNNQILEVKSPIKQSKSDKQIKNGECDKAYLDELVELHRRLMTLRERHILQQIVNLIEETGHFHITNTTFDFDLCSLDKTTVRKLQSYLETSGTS
Beta cell apopt – inhibitors of cytokine-induced beta cell apoptosis, primary screen, luminescence. protection from apoptosis, % (concentration not given with the values). AID 435005, 2010. INS-1E cytokine-induced death, ATP luminescence, 48 h; percent of positive-control rescue, neutral wells zero. hit rate 0.8% among 300,000;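 active = all replicates at 75% or more, or half of them and the mean; inconclusive = half reach 75% but not the mean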;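 note: 0% = cytokine-treated negative control wells and 100% = positive control rescue; higher means more ATP so stronger rescue from cytokine killing; wells of about 40 µL received 100 nL stock; the first replicate is given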
Bfl-1 A1 inh – caspase 3/7 activation in MEF A1-2A-BIM cells, primary screen, A1 inhibitor project, cell-based, luminescence, HTS. hit rate 0.066% among 330,000. caspase activation, % (concentration not given with the values). Caspase-Glo 3/7 luminescence, 3 h; percent of clofoctol response, vehicle zero;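 active = over half of replicate activation scores above 10%, or exactly half above 10 with the replicate mean above 10; inconclusive = replicate mean below 10 yet half the replicates above 10; inactive = over half of replicates below 10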;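 note: wells of about 30 µL received 50 nL stock; many hits fall short of the cut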
* marks the source's active call; other numbers are inactive results; ? = inconclusive; / = not tested or not shown.

SMILES	RanGTP-Imp inh	Calb FLC	LANA-H2A inh	Vif TR-FRET	T cruzi repl	AF4-AF9 inh	Beta cell apopt	Bfl-1 A1 inh
COCCNc1cc(C)c(C#N)c2nc3ccccc3n12	25*	7	1.4	8%	0	/	-15	0.2
CCN(CC)CCNCC(O)(c1ccc(Cl)cc1)c1ccc(Cl)cc1	0.6	-20	-3.8	-4%	-7	3.7	19	-0.8
CCOC(=O)c1cc(NC(=O)N(CC)CC)c(C)nc1C	0.1	5	-6.8	17%	-15	/	-8	-0.2
COc1ccc(-c2cc3c(=O)n(CC(=O)Nc4ccc(Cl)cc4)ncn3n2)cc1	-4.0	0	1.5	/	47	-0.3	0	0.0
Cn1c(CCNC(=O)c2ccco2)nc2cc(NC(=O)NC3CCCCC3)ccc21	-5.5	9	2.0	-5%	2	/	-5	-1.3
Cc1cc(C)cc(OCC(=O)N/N=C/c2ccc([N+](=O)[O-])o2)c1	0.3	?	-4.1	25%	60*	-1.5	7	0.1
COCCNC(=O)c1cc(-c2ccccc2)nn1CC1CC(c2cccc([N+](=O)[O-])c2)=NO1 (stereo not given)	-3.2	1	-4.3	/	3	/	-1	-0.2
N#CCCn1c(=S)[nH]c2ccccc21	-1.6	-3	2.1	-5%	-28	/	1	0.3
COc1ccc(CCN(CC(=O)NC2CCCC2)C(=O)Cn2nnc(-c3ccc(C)o3)n2)cc1OC	-1.5	-3	-2.1	/	26	-2.5	-4	0.4
COCCOC(=O)c1c(C)oc2ccc(NS(=O)(=O)c3ccccc3)cc12	-2.5	18	-5.6	-6%	7	8.9	5	-0.3
C=C(C)c1cccc(C(C)(C)NC(=O)NC2CC(C)(C)NC(C)(C)C2)c1	-1.5	20	-4.5	4%	6	/	0	0.8
O=c1nc2ccc(Cl)cn2c2ccc(S(=O)(=O)N3CCOCC3)cc12	?	15	5.8	/	-2	4.4	-2	0.1
CCOC(=O)/C(C#N)=C/c1cc2ccccc2nc1N1CCCCC1	-24	-8	0.8	-119%	-14	12	4	0.5
CC1Cc2c([nH]c3ccccc23)C2c3ccccc3CN12 (stereo not given)	3.9	4	-0.6	3%	20	0.5	-1	0.5
CCOC(=O)N1CCN(C(=O)CSc2nc(=O)n3ccc(C)cc3n2)CC1	5.9	-2	1.5	7%	-3	0.1	/	0.5
CCOC(=O)/C(C#N)=C/c1c(Oc2cccc(C)c2)nc2ccccn2c1=O	3.1	-5	2.2	0%	-10	-5.4	-4	0.4
COC(=O)c1ccc(/C=C/C(=O)OCC(=O)Nc2ncc(Cl)cc2Cl)cc1	/	/	2.3	32%	/	0.6	-9	-0.1
CC(=O)c1ccc(S(=O)(=O)N2CCC3(CC2)CC(=O)c2ccccc2O3)cc1	-1.2	-2	-6.9	-8%	1	-0.6	3	-0.2
COCCCn1c(SCC(=O)NC(C)(C)C)nnc1-c1cccs1	-2.4	3	-5.6	-4%	12	-15	-2	0.8
CC(C)(C)NC(=O)COC(=O)c1ccccc1OCC(=O)Nc1ccc(Br)cc1	/	/	-0.6	12%	-1	-4.0	11	-0.3

Part of the list above in order of SMILES length, high to low.
SMILES	RanGTP-Imp inh	Calb FLC	LANA-H2A inh	Vif TR-FRET	T cruzi repl	AF4-AF9 inh	Beta cell apopt	Bfl-1 A1 inh
COc1ccc(-c2cc3c(=O)n(CC(=O)Nc4ccc(Cl)cc4)ncn3n2)cc1	-4.0	0	1.5	/	47	-0.3	0	0.0
CC1Cc2c([nH]c3ccccc23)C2c3ccccc3CN12 (stereo not given)	3.9	4	-0.6	3%	20	0.5	-1	0.5
COCCNc1cc(C)c(C#N)c2nc3ccccc3n12	25*	7	1.4	8%	0	/	-15	0.2
N#CCCn1c(=S)[nH]c2ccccc21	-1.6	-3	2.1	-5%	-28	/	1	0.3

Shown as a hit in RanGTP-Imp inh, among the entries above:
SMILES,RanGTP-Imp inh,LANA-H2A inh,Vif TR-FRET,AF4-AF9 inh,Bfl-1 A1 inh
COCCNc1cc(C)c(C#N)c2nc3ccccc3n12,25*,1.4,8%,/,0.2

Continued.
SMILES	RanGTP-Imp inh	Calb FLC	LANA-H2A inh	Vif TR-FRET	T cruzi repl	AF4-AF9 inh	Beta cell apopt	Bfl-1 A1 inh
COc1ccc(NC(=S)N2c3ccccc3CC2C)cc1OC (stereo not given)	-3.1	5	-1.9	14%	-14	3.9	-3	0.0
C/C(=N\NC(=O)c1nn(C)c(C)c1Br)c1cccc(NC(=O)c2ccoc2C)c1	1.9	-2	2.7	/	8	/	-1	0.3
COc1cc(/C=C2\C(=N)N3N=C(N4CCOCC4)SC3=NC2=O)ccc1OC(=O)c1ccccc1	3.0	-7	-5.2	/	-12	5.5	5	-0.4
Cn1cc(C(=O)OCC2CCN(CCNS(C)(=O)=O)CC2)c2ccccc21	2.9	/	8.0	/	19	1.1	1	0.8
CCOC(=O)c1nc(C)n(-c2ccc(Cl)cc2)n1	?	-1	2.9	21%	-7	/	1	0.0
CCOc1ccc(N(CC(=O)Nc2cccc(Cl)c2)S(=O)(=O)c2c(C)noc2C)cc1	-1.6	0	1.8	4%	11	2.5	26	-0.2
COc1ccccc1-n1c(SCC(=O)NC2CCS(=O)(=O)C2)nc2ccccc2c1=O (stereo not given)	/	/	1.9	9%	/	?	1	1.6
Cc1ccc(S(=O)(=O)Nc2c(NC3CCCCC3)c3ccccc3oc2=O)cc1C	10	-5	-1.0	/	-12	1.9	13	-0.1
Cc1ccc(NC(=O)CN2C(=O)c3ccccc3S2(=O)=O)c(C)c1	-1.6	2	-5.3	/	-23	-0.3	/	0.6
Nc1cccc(CN2CCCC2)c1	-2.2	-14	-3.6	4%	-7	-1.8	-2	-0.2
CCOc1ccc(NC(=O)CC2C(=O)N(c3ccccc3)C(=O)N2CCOC)cc1 (stereo not given)	1.9	5	0.5	-16%	5	9.8	1	0.4
COc1ccc(S(=O)(=O)Nc2cc3c4c(c2)CCC(=O)N4CCC3)cc1	-0.5	2	-1.8	1%	4	-0.4	7	0.3
Cc1ccccc1Nc1nnc(SCC(=O)NCc2ccco2)s1	/	/	0.8	15%	/	/	-4	-0.1
CC1(C)Cc2ccccc2-c2nc3n(c(=O)c21)CCCS3	-0.7	-11	0.4	-2%	34	-2.8	-8	0.1
Cc1nn(Cc2ccc(F)cc2)c(C)c1NC(=O)c1cnn2c1NC(c1cccs1)CC2C(F)(F)F (stereo not given)	-8.3	?	-0.5	-12%	6	/	-2	0.8
COc1cccc(CNC(=O)c2nnn(CC(=O)Nc3cc(Cl)ccc3C)c2N)c1	4.7	30	4.5	/	-7	0.0	0	0.7
CCN1C(=O)C(CC(=O)Nc2ccc(OC)cc2)N(Cc2ccc3c(c2)OCO3)C1=S (stereo not given)	-2.0	-6	-1.7	?	7	0.0	0	0.5
CCOC(=O)CNS(=O)(=O)c1ccc(S(=O)(=O)N2CCCC2)cc1	2.8	-17	-1.1	16%	-1	-1.9	2	0.3
COc1ccc(-c2csc(=Nc3ccccc3)n2CCO)cc1	2.2	-13	2.5	16%	-39	38*	6	-0.7
Cc1ccc(C)c(C(=O)COC(=O)C(C)N2C(=O)C3C4CCC(C4)C3C2=O)c1 (stereo not given)	2.8	5	2.0	/	0	-0.3	-1	0.7

Looked up above:
Bfl-1 A1 inh result of CCN(CC)CCNCC(O)(c1ccc(Cl)cc1)c1ccc(Cl)cc1 = -0.8
Bfl-1 A1 inh result of COCCOC(=O)c1c(C)oc2ccc(NS(=O)(=O)c3ccccc3)cc12 = -0.3
T cruzi repl result of COCCNC(=O)c1cc(-c2ccccc2)nn1CC1CC(c2cccc([N+](=O)[O-])c2)=NO1 (stereo not given) = 3

Returning to the listing with the two entries that preceded the break.
SMILES	RanGTP-Imp inh	Calb FLC	LANA-H2A inh	Vif TR-FRET	T cruzi repl	AF4-AF9 inh	Beta cell apopt	Bfl-1 A1 inh
COc1ccc(-c2csc(=Nc3ccccc3)n2CCO)cc1	2.2	-13	2.5	16%	-39	38*	6	-0.7
Cc1ccc(C)c(C(=O)COC(=O)C(C)N2C(=O)C3C4CCC(C4)C3C2=O)c1 (stereo not given)	2.8	5	2.0	/	0	-0.3	-1	0.7
CCOc1cc(CNc2cccc3ccccc23)cc(Br)c1OCC(=O)NC(C)(C)C	-0.4	2	0.2	27%	55*	/	9	0.7
O=C(CS(=O)(=O)c1cn(Cc2ccc(Cl)cc2)c2ccccc12)N1CCCC1	0.6	7	3.1	-2%	6	-2.4	-5	-1.4
Cc1ccc(S(=O)(=O)CCC(=O)OCC(=O)Nc2cc(S(=O)(=O)N3CCOCC3)ccc2C)cc1	-1.3	-1	0.7	0%	-6	-0.1	2	-0.3
O=C(Nc1ccccc1F)Nc1ccccc1OC(F)F	-0.3	8	-0.8	-3%	-5	-0.4	21	-2.5
CCOC(=O)N1CCN(C(=O)/C(=C/c2ccc(OC)c(OC)c2)NC(=O)c2ccccc2)CC1	?	5	-2.1	/	10	-1.3	-5	0.2
COc1ccccc1-c1noc(CSc2nc(C)cc(=O)[nH]2)n1	0.2	9	-7.4	/	-20	-1.3	1	-0.2
Cc1ccccc1NS(=O)(=O)c1ccc2c(c1)NC(=O)CCS2	-1.1	8	-2.5	/	9	-2.6	3	2.4
Cc1ccc(/C(O)=C2\C(=O)C(=O)N(C)C2c2ccccc2[N+](=O)[O-])cc1 (stereo not given)	0.2	-6	0.4	/	-4	-1.1	-1	-0.4
Cc1cc(OCCCC(=O)NCCc2ccccn2)ccc1Cl	2.9	1	4.4	/	-7	-3.6	/	0.7
CC1=CCC2C(=O)N(c3ccc(N4CCOCC4)cc3)C(=O)C2C1 (stereo not given)	2.2	1	2.3	0%	2	-4.2	-1	0.0
COc1ccc(C2(c3ccc(OC)cc3)NC(=O)N(CC(=O)Nc3ccc(OC(F)F)cc3)C2=O)cc1	-1.6	-3	0.6	-2%	28	-4.2	/	-2.0
CCc1nc(-c2ccccc2O)n(-c2ccccc2)n1	2.3	?	0.5	-3%	-3	/	2	1.8
CCN(CC)C(=O)CSc1nnc(-c2cnccn2)n1-c1ccccc1	0.4	-6	1.0	-4%	-11	/	-2	-0.1
CC(C)C(=O)Nc1cccc(NC(=O)c2ccc([N+](=O)[O-])cc2Cl)c1	-1.7	-30	4.2	/	21	-4.8	6	0.3
CCCc1cc(-c2nc(N)ncc2-c2csc(C)n2)c(O)cc1OC	-1.1	?	1.8	/	21	5.4	-4	-1.5
CN(c1cccc(NC(=O)Nc2ccc(Cl)cc2)c1)S(C)(=O)=O	1.9	-16	-3.8	-10%	-5	/	0	0.4

Rows were taken by chance, and some 4.3% of all compounds hit somewhere here.
